Assay outcomes: PubChem, National Center for Advancing Translational Sciences (NCATS)
PMP22 txn: modulators of PMP22 gene transcription in S16 Schwann cells | S16 Pmp22-F2sN Schwann cells (luciferase reporters placed in the Pmp22 gene), FLuc/NLuc coincidence luminescence, 24 h | Potency, µM (top dose mostly 57.5 µM), for inactives: at the top dose activity change, negative = inhibition, most hits filed as inhibitors | 2% of 43,000 active; active = clear falling dose curves in both reporters; inconclusive = both reporters move, but less clearly or upward; inactive = either reporter flat; the % is the NLuc reporter signal; further: on the % scale 0 is the no-effect control and ±100 the full control effect; some results filed as inactive show a strong effect at the top dose
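qHTS, 1536-well. Cells seeded, compounds added by pin tool, 24 h 37C. Nano-Glo reagent 1 (lysis/FLuc), 10 min RT, read; Stop&Glo, 10 min RT, read NLuc.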
HTT prom inh: inhibitors of huntingtin promoter activity; 0.93% of 48,000 active; HEK293 HTT promoter firefly luciferase reporter (activity 0% = vehicle and -100% = no light), 24 h; Potency, µM (highest dose often 57.5 µM), for the others: at the top dose activity change, negative = inhibition, usual class: inhibitors; active means well fitted inhibition curve with a large enough effect; inconclusive means small, poorly fitted or top-dose-only effect; inactive means no such curve, though single readings can be large or run the other way; further: nearly all actives have a fitted effect of over 50% in size
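Luminescence was read after Dual-Glo reagent and a 10 min room-temperature incubation. Values were normalized to vehicle (0% activity) and zero RLU (-100% activity). Reporter HEK293 cells had been exposed to compounds (up to 57.5 uM final) for 24 h.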
The depositor's hits bear a star; ? = inconclusive; . = no result given; [ ] = another dose, or the depositor's remark. Potency means the concentration at half of the fitted maximal effect.

SMILES	PMP22 txn	HTT prom inh
CCCCOc1cccc(C(=O)N2CCN(CCc3ccncc3)CC2)c1	-8%	-15%
Cc1cccc(C)c1NC(=O)CN1CCCC1	.	1%
CCOCN(C(=O)Cn1cnc2cc(C)c(C)cc21)c1c(C)cccc1CC	?	-12%
Fc1ccc(N2CCN(c3ncnc4c3nc3n4CCCCC3)CC2)cc1	?	2.8µM*
CC1CCCCN1CCCNC(=O)c1cc(Sc2ccc(Cl)cc2)nc2ccccc12 (stereo not given)	?	-12%
COc1ccc(C2C=C(c3ccccc3)Nc3nc(NC(=O)/C=C/c4ccc(F)cc4)nn32)cc1 (stereo not given)	?	-29%
COC(=O)c1ccc2c(c1)N(CC(=O)Nc1ccc(OC)c(Cl)c1)C(=O)c1ccccc1S2	-2%	-34%
O=C(CSc1nc2c([nH]c3ccccc32)c(=O)n1-c1ccc(Cl)cc1)NCc1ccccc1	?	-19%
COc1ccccc1N1CCN(CCC(=O)Nc2cccc(F)c2)CC1	-1%	-28%
O=C(NCCc1ccccc1)c1cc(Sc2cccc(Cl)c2)nc2ccccc12	-20%	?
O=C(NCc1ccccc1Cl)C1CCCN(c2ncnc3onc(-c4ccc(F)cc4)c23)C1 (stereo not given)	-8%	-12%
COc1cc(NC(=O)CSc2ccc(-c3sc(-c4ccccc4)nc3C)nn2)cc(OC)c1	-28%	1%
CCC(=O)N1CCc2cc(Br)cc(S(=O)(=O)N3CCCC(C(=O)Nc4ccc(C)c(F)c4)C3)c21 (stereo not given)	?	?
COc1ccccc1NC(=O)c1ccc(CN2C(=O)C(C)=C(c3ccc(C)c(C)c3)S2(=O)=O)cc1	-10%	?
COc1ccc(Nc2ncnc3c2nc2n3CCCC2)cc1Cl	?	-2%
CCOC(=O)C1=C(CN(CC)Cc2ccccc2)NC(=O)NC1c1ccc(OC)cc1 (stereo not given)	-4%	?
CC(C)OCCCNC(=O)c1cn(C)c2ccc(S(=O)(=O)N(C)C3CCCCC3)cc2c1=O	?	-6%
CCn1cc(C(=O)N(C)c2ccc(C(C)C)cc2)c2cc(OC)c(OC)cc2c1=O	?	-26%
COc1ccc(CC(=O)Nc2ccc(-c3nc4ccccc4s3)cc2Cl)cc1OC	-2%	?
Cc1ccc(N2C(=O)C(CC(=O)Nc3cccc(F)c3)N(CCc3ccccc3F)C2=O)cc1 (stereo not given)	-145%	-6%
CCc1ccc(-c2nc(CN3CCCC(C(=O)NCc4ccc(C)cc4)C3)c(C)o2)cc1 (stereo not given)	?	-5%
COc1ccc2c(c1)c1c(c(=O)n(-c3ccc(OC)c(OC)c3)c(=O)n1CC(=O)N1CCCC1)n2C	-9%	-10%
COc1ccc(CCNc2nc(SCc3ccccc3F)nc3ccccc23)cc1OC	?	-7%
COc1cccc(-c2nn3c(=O)cc(CN4CCN(C(=O)/C=C/c5ccccc5)CC4)nc3s2)c1	10%	-6%
CCn1cc(C(=O)N2CCN(c3ccc(OC)cc3)CC2)c2cc(OC)c(OC)cc2c1=O	?	1%
(continued)
SMILES	PMP22 txn	HTT prom inh
COCCNC(=O)c1ccc2c(c1)N(Cc1ccc(C(F)(F)F)cc1)C(=O)c1ccccc1S2	?	?
Cc1ccc(F)c(NC(=O)Nc2ccc3snnc3c2)c1	?	10%
Cc1ccc(Cn2c(CO)cnc2SCc2cccc(F)c2)cc1	-11%	9%
Cc1ccc2c(c1)N(CCCC(=O)Nc1cccc(C(F)(F)F)c1)C(=O)CO2	?	?
O=C(CN1C(=O)CCSc2ccc(S(=O)(=O)N3CCCC3)cc21)Nc1cccc(F)c1	?	-25%
Cc1oc2ccc(NS(=O)(=O)c3ccc(F)cc3)cc2c1C(=O)O	-39%	-5%
COc1ccc2c(c1)c1c(c(=O)n(Cc3ccccc3)c(=O)n1CC(=O)NCc1ccccc1Cl)n2C	2%	-4%
Cc1ccccc1-c1noc(-c2ccc(N3CCN(c4ccccc4)CC3)c([N+](=O)[O-])c2)n1	-5%	-3%
COc1ccccc1NC(=O)C1CCN(S(=O)(=O)c2ccc3[nH]c4c(c3c2)CCCCC4)CC1	0%	?
CC(=O)N1CCc2cc(S(=O)(=O)NC(CC(C)C)C(=O)NCc3ccccc3)ccc21 (stereo not given)	6%	-9%
Cc1ccc(-c2noc(-c3cccnc3N(C)Cc3ccc(Cl)cc3)n2)cc1	-3%	3%
Cc1ccccc1C(=O)NCc1nc(-c2ccc(Cl)cc2)no1	-19%	?
COc1ccc(-n2c(=O)c3ccc(C(=O)NCc4ccc(C)cc4)cc3n(CC(=O)Nc3ccc(F)cc3)c2=O)cc1	-42%	-9%
COc1ccc(-n2nc(C(=O)N3CCN(c4cccc(C)c4C)CC3)c3c4ccccc4n(C)c3c2=O)cc1Cl	-17%	-11%
COc1cccc(-n2c(=O)c3sc4ccccc4c3n(CC(=O)Nc3ccc(F)cc3F)c2=O)c1	?	?
CCOC(=O)c1c(NC(=O)c2ccccc2C)sc2c1CCCC2	1%	-16%
CN(C)CCCN(C(=O)c1cccs1)c1nc2ccc(F)cc2s1	-100%	10%
Cc1c(C(=O)OC2CCC(C)CC2)[nH]c2c1C(=O)CC(c1ccc(N(C)C)cc1)C2 (stereo not given)	2%	-12%
Cc1ccc(-n2ncc(C(=O)NCc3ccco3)c2C2CCN(C(=O)OC(C)(C)C)CC2)cc1	-12%	-18%
Cc1cc(CN2CCN(c3ccccc3F)CC2)cs1	?	-12%
CN(C)c1ccc(CNC(=O)c2ccc3c(c2)N(C)C(=O)C2CCCCN32)cc1 (stereo not given)	-1%	11%
CCN(Cc1ccccc1)S(=O)(=O)c1cc(C(=O)Nc2cc(Cl)cc(Cl)c2)ccc1F	?	25µM*
O=C(CN1C(=O)COc2ccc(S(=O)(=O)Nc3ccccc3)cc21)Nc1cccc(Cl)c1	-27%	-22%
CCOc1ccccc1NC(=O)CCNS(=O)(=O)c1cccc2nonc12	-1%	-8%
COc1ccc(S(=O)(=O)c2c(Nc3ccccc3F)sc(C(=O)c3cccc(OC)c3)c2N)cc1	4µM*	?

Looked up above.
`CCOc1ccccc1NC(=O)CCNS(=O)(=O)c1cccc2nonc12` in HTT prom inh: -8%
`COc1ccccc1NC(=O)C1CCN(S(=O)(=O)c2ccc3[nH]c4c(c3c2)CCCCC4)CC1` in PMP22 txn: 0%
`CCOC(=O)c1c(NC(=O)c2ccccc2C)sc2c1CCCC2` in PMP22 txn: 1%
`Cc1ccc(N2C(=O)C(CC(=O)Nc3cccc(F)c3)N(CCc3ccccc3F)C2=O)cc1` (stereo not given) in PMP22 txn: -145%
`COc1ccccc1NC(=O)c1ccc(CN2C(=O)C(C)=C(c3ccc(C)c(C)c3)S2(=O)=O)cc1` in PMP22 txn: -10%

Remaining list, next part:
SMILES	PMP22 txn	HTT prom inh
Cc1ccccc1CNC(=O)Cn1nc(C)c2nn(-c3ccc(Cl)cc3)c(C)c2c1=O	5%	-30%
Cc1cccc(-c2nc(SCC(=O)N3CCc4ccccc43)c3c(=O)n(C)c(=O)n(C)c3n2)c1	-11%	-6%
CCc1ccc(NCc2cc3cc(OC)c(OC)cc3n(CC(=O)Nc3ccc(F)cc3)c2=O)cc1	?	-20%
COc1ccc(N2CCN(CC(O)COc3ccccc3C(C)(C)C)CC2)cc1 (stereo not given)	-8%	-24%
CCc1ccc(C(=O)N2CCC(c3nc(-c4ccc(S(=O)(=O)N5CCCC5)cc4)no3)CC2)cc1	?	-13%
Cc1ccc(C(=O)N2CCC(C(N)=O)CC2)cc1NC(=O)c1nsc2ccccc12	-8%	0%
Cc1cccc(CNC(=O)CN2CC(C)Sc3ccccc32)c1 (stereo not given)	-20%	-1%
CCc1ccc(NC(=O)Cn2c(=O)n(CCc3ccccc3)c(=O)c3sc4ccccc4c32)cc1	?	-2%
COc1cccc(CNC(=O)Cn2c(=O)n3nc(-c4cccc(C)c4)nc3c3ccccc32)c1	-21%	32%[activator]
Cc1nn(-c2ccccc2)c2nc(C3CC3)cc(C(=O)NCc3ccccc3Cl)c12	-67%	-18%
CCOC(=O)c1c(C)[nH]c(C)c1S(=O)(=O)N(C)CC(=O)NCc1ccc(Cl)cc1	7%	-16%
Cc1ccc(NC(=O)Cn2c(=O)n(Cc3nc(C)no3)c(=O)c3cc4c(cc32)OCO4)c(C)c1	34%	-15%
CSc1cccc(NC(=O)c2ccc3c(c2)c(C)c(C)n3Cc2ccc(F)cc2)c1	-27%	-24%
COc1cc(/C=C/c2nc(C#N)c(N3CCCCC3)o2)cc(OC)c1OC	-9%	2%
COc1ccc(NC(=O)C2CCCN(c3ncnc4onc(C)c34)C2)cc1OC (stereo not given)	-18%	?
O=C(Nc1ccc(SC(F)F)cc1)c1cc(-c2ccc3c(c2)OCCO3)on1	?	10µM*
COc1ccc(-c2noc(CSc3nnc(C)n3-c3ccc(C)cc3)n2)cc1OC	12µM*	?
C[C@]12C=CC(=O)C=C1CC[C@H]1[C@@H]3C[C@@H](O)[C@](O)(C(=O)CO)[C@@]3(C)C[C@H](O)[C@@]12F	.	7%
Cc1cc2oc(C(=O)N(Cc3ccc(Cl)cc3)Cc3ccco3)c(C)c2cc1Cl	-4%	-26%
COc1ccc(NC(=O)CSc2nc(-c3ccco3)cc(C(F)(F)F)n2)cc1Cl	?	?
CCOC(=O)N1CCC(NC(=O)c2cnn(-c3ccc(F)cc3)c2-n2cccc2)CC1	?	-28%
CN(C)S(=O)(=O)Nc1ccc(-c2cn3ccsc3n2)cc1	6%	40%[activator]
O=C1c2oc3ccccc3c(=O)c2C(c2cccc(O)c2)N1Cc1ccc(F)cc1 (stereo not given)	-15%	?
Cc1ccc2nc(N3CCC(C(=O)N4CCN(c5cccc(Cl)c5)CC4)CC3)[nH]c2c1	?	-18%
Cc1nc2sccn2c(=O)c1S(=O)(=O)Nc1cc(Cl)ccc1O	?	-10%

Compound profiles (already shown):
O=C1c2oc3ccccc3c(=O)c2C(c2cccc(O)c2)N1Cc1ccc(F)cc1 (stereo not given) is entered as PMP22 txn: -15%; HTT prom inh: ?
Cc1cccc(CNC(=O)CN2CC(C)Sc3ccccc32)c1 (stereo not given) is entered as PMP22 txn: -20%; HTT prom inh: -1%
CCOC(=O)c1c(C)[nH]c(C)c1S(=O)(=O)N(C)CC(=O)NCc1ccc(Cl)cc1 is entered as PMP22 txn: 7%; HTT prom inh: -16%

More compounds.
SMILES	PMP22 txn	HTT prom inh
Cc1c(N)c(=O)n(-c2ccccc2)n1C	.	-6%
CC(=O)c1ccc(NC(=O)CCc2c(C)nn(-c3ccc4nnc(C)n4n3)c2C)cc1	-1%	-5%
CCc1ccc(NC(=O)C2CCCN2S(=O)(=O)c2ccc3c(c2)n(C)c(=O)c(=O)n3C)cc1 (stereo not given)	-19%	12%
Cc1cccc(-n2nc(C)c(C(=O)N3CCN(c4ccccc4)CC3)c2-n2cccc2)c1	4%	?
Cc1c(Cl)cccc1NC(=O)C1CCCN(c2nnc(-n3c(C)ccc3C)s2)C1 (stereo not given)	?	?
Cc1ccc(CCNC(=O)c2cnc3c(C)cccn3c2=O)cc1	-1%	0%
COc1cccc(NC(=O)Cn2c(=O)n(CCC(=O)NCc3ccccc3OC)c(=O)c3ccccc32)c1	-6%	-12%
COc1cc(NC(=O)CN(c2ccc(C)cc2)S(=O)(=O)c2cccc3nonc23)cc(OC)c1	-3%	-14%
O=S(=O)(c1ccc(-c2csc(=Nc3ccc(F)cc3)n2CCCCCCO)cc1)N1CCCC1	8.8µM*	?
CCOC(=O)c1[nH]c(C)c(CCC(=O)Nc2cc(Cl)ccc2C)c1C	-7%	?
CCOc1ccc(OCC)c(NC(=O)C2CCN(S(=O)(=O)c3c(C)noc3/C=C/c3ccccc3F)CC2)c1	-11%	-8%
O=C(Nc1nc2c(F)cccc2s1)c1ccc(S(=O)(=O)N2CCOCC2)cc1	-9%	-16%
COc1ccc(-n2cc(-c3ccccc3)c3c(Nc4ccc(OC)c(OC)c4)ncnc32)cc1	?	-27%
COc1ccc(Nc2cc(C(=O)NCc3ccccc3)c3ccccc3n2)c(OC)c1	?	6%
Cc1ccc(CSc2c(C)cnc3c2c(=O)n(C)c(=O)n3C)cc1	?	?
COc1ccc(CNC(=O)c2ccc3c(c2)N(Cc2ccccc2)C(=O)c2ccccc2S3(=O)=O)cc1	-1%	-12%
Cc1cccc(-n2c(C)cc(C(=O)C(=O)Nc3ccccc3F)c2C)c1C	?	8.9µM*
O=C(CC(=O)Nc1ccccc1F)Nc1ccc2nc3n(c(=O)c2c1)CCCCC3	-5%	?
C[C@]12CC[C@@H]3c4ccc(O)cc4CC[C@H]3[C@@H]1CC[C@@H]2OC(=O)CCC1CCCC1	.	10%
Cc1cc(NS(=O)(=O)c2ccc(NC(=O)COc3cc(C)c(Br)cc3C(C)C)cc2)no1	-15%	-27%
CCc1cccc(-n2nnc(-c3nc(-c4ccc5c(c4)OCO5)no3)c2C)c1	-86%	-3%
CCOC(=O)c1ccc2c(c1)N(Cc1ccc(F)cc1Cl)C(=O)c1ccccc1S2	-8%	-28%
Cc1ccc(CN2CCN(C3CCN(C(=O)Nc4ccccc4C(F)(F)F)CC3)C(=O)C2=O)cc1	-4%	-4%
O=c1c(S(=O)(=O)c2ccccc2)cn(Cc2cccc(F)c2)c2cc(N3CCCC3)c(F)cc12	-4%	-8%
COc1ccc(N2CCN(C(=O)c3cc4c(=O)n(Cc5ccccc5)ccc4nc3C)CC2)cc1	5%	?
